Source: PubChem (National Center for Advancing Translational Sciences (NCATS))
gsp antag = gsp mutant antagonism; gsp-mutant cells, cAMP HTRF, 30 min; control for the full effect not named in the record; Potency, µM (top dose mostly 76.9 µM), inactives show at the highest dose activity change, negative = inhibition, usual class: inhibitors; hit rate 0.4% among 340,000; AID 624288; active = falling curve of any shape with a large fitted effect; inconclusive = falling curve, mostly with a smaller effect; inactive = flat or rising curve; cell line not stated here;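 note: intracellular cAMP measured with PDE inhibitor Ro 20-1724 present during compound exposure; potency is the fitted concentration of half-maximal effect; % is set by controls: 0 for no effect and ±100 for the full control effect; nearly all actives have a fitted effect of over 65% in size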
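Measurement of cellular cAMP by homogeneous time-resolved fluorescence following a 30 min compound exposure at 37C. The PDE inhibitor […] was present throughout; the assay buffer was DPBS with 0.05% BSA and 0.005% Tween 20.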
Menin MLL FP FL = menin-MLL binding inhibition, fluorescein peptide. Fluorescence polarization, fluorescein-MLL peptide displacement from menin. FP activity change, % at 61.4 µM. 290,000 tested, under 10 active; inconclusive = falling polarisation curve, or a change in total fluorescence; inactive = total fluorescence flat and polarisation flat or rising; no compound was filed as active; the % refers to the polarisation; negative = inhibition;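 note: % of control where 0% means no effect; inhibitors lower the polarisation; unlabelled MLL peptide was the positive control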
Sfp inh = Sfp phosphopantetheinyl transferase inhibition | Q9F4F7 | Biochemical Sfp PPTase activity, qHTS | Potency, µM, for the others: max response, negative = inhibition, actives largely listed as inhibitors | hit rate 3.5% among 310,000 | AID 1490; active = well fitted inhibition curve with a large enough effect; inconclusive = small, poorly fitted or top-dose-only effect, or another doubt; inactive = no such curve, though single readings can be large or run the other way;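 note: the enzyme is Sfp with the accession as filed and its product quenches rhodamine fluorescence; potency is the fitted concentration of half-maximal effect; 0% = enzyme reaction without inhibitor and -100% = no enzyme wells; top concentration of the series not given in the record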
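Step 1, compound plus 15 nM Sfp-PPTase, 15 min, room temperature. Step 2, add rhodamine-CoA (5 uM) and BHQ-2-YbbR (12.5 uM). Step 3, read 525/598 nm fluorescence at 0 and 30 min.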
gsp ag = activates gsp, the McCune-Albright syndrome mutation | gsp mutant cells, cAMP HTRF, 30 min; control for the full effect not named in the record | Potency, µM (top dose mostly 76.9 µM), for the others: at the highest dose activation (cAMP increase), hits mostly activators | hit rate 0.13% among 340,000; active = well fitted activation curve with a large enough effect; inconclusive = small, poorly fitted or top-dose-only effect, or another doubt; inactive = no such curve, though single readings can be large or run the other way; cell line not stated here;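 note: phosphodiesterase inhibitor Ro 20-1724 added with compounds to block cAMP breakdown; potency is the fitted concentration of half-maximal effect; nearly all actives have a fitted effect of over 60% in size; about a fifth of the inactives were tested at one dose only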
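Cells stably selected in G418 were plated at 2000/well, grown 16-24 hr, then given compounds in DMSO with the PDE inhibitor […] (300 uM solution added) for 30 min at 37C; cAMP was read by HTRF.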
TRPML1 blocker = human mucolipin-1 channel inhibition; activity change, negative = inhibition, % (test concentration not listed); hit rate 0.02% among 390,000; TRPML1-inducible cells, Ca2+ dye fluorescence, FDSS; stronger effect = lower value; inhibition of EC80 agonist-evoked calcium signal; Q9GZU1; in the data active means activity change below about -50%; inconclusive means about -30% to -50%; inactive means above about -30%;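 note: stimulus is agonist 54-4 at its EC80 concentration; % is set by controls: 0 for no effect and ±100 for the full control effect; compound concentration not given in the record; the text of the record puts the active cut at -80%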
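Tet-induced TRPML1-DL cells loaded with Ca8 no-wash calcium dye were read kinetically on FDSS. Compound addition was followed by EC80 agonist 54-4 (4 uM final); inhibition was read over 110 s.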
TRPV1 potentiator = potentiators of human vanilloid receptor 1 (TRPV1). Q8NER1. TRPV1-expressing cells, Fluo-8 calcium influx, capsaicin EC20 potentiation; host cell line not named in the record; control for the full effect not named in the record. potentiation, % at 8.33 µM. hit rate 0.02% among 320,000; active means potentiation above 80%; inconclusive means 30% to 80%; inactive means below 30%; note: 0% is about no effect
Target sequence (Q8NER1 whole entry, looked up): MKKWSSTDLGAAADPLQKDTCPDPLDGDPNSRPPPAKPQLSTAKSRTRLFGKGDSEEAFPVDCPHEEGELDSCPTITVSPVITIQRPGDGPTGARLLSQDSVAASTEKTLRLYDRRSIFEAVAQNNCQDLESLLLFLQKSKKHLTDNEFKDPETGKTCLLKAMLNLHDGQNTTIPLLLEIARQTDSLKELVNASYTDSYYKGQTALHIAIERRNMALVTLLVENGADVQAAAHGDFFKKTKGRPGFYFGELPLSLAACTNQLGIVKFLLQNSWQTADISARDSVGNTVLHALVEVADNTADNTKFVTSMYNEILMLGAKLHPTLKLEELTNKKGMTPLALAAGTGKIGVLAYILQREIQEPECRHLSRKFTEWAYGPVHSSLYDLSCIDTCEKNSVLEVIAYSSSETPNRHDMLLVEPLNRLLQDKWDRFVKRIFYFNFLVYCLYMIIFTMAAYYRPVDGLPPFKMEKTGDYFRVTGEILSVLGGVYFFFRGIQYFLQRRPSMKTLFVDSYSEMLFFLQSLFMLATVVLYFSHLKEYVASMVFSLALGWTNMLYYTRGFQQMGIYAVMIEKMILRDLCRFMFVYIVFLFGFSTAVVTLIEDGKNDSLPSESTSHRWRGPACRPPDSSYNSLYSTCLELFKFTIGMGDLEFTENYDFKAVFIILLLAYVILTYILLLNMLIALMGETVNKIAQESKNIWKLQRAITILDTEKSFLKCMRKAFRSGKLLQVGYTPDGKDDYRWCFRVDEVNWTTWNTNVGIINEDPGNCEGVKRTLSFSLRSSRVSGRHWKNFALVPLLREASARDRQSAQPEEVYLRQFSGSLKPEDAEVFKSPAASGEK
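Fluo-8 calcium influx in TRPV1-expressing cells, kinetic read (ex 480/em 520 nm). Compound added and read 3 min for agonist activity, followed by capsaicin at EC20 final and 2 min further read for enhancement.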
ClpP mod = qHTS Assay for Activators of ClpP. ATP-dependent Clp protease proteolytic subunit (Bacillus subtilis (strain 168)), P80244. purified B. subtilis ClpP, FRET peptide cleavage, 20 min. Potency, µM (doses to about 57.5 µM), without a hit: at the top dose activity change, negative = active. hit rate 1.9% among 340,000; active = well fitted falling curve with a large enough effect; inconclusive = small, poorly fitted or top-dose-only effect; inactive = no such curve, though single readings can be large or run the other way; note: potency is the fitted concentration of half-maximal effect; the source files actives as falling curves though it sought activators and does not explain the sign; nearly all actives have a fitted effect of over 65% in size; many hits overshoot -100%
Target sequence (P80244 whole entry, looked up): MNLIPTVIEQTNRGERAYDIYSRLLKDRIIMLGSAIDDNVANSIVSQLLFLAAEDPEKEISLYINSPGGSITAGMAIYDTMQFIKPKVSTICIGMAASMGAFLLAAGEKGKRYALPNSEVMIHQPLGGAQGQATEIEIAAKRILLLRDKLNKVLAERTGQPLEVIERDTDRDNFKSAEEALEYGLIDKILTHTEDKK
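FRET quenching reversal measured ClpP activation: 10 microg/mL B. subtilis ClpP at pH 8 with the FRET-FV decapeptide, read at 430 nm after 320 nm excitation. The 20-min minus 0-min signal was scaled between DMSO/no-enzyme wells and ADEP (5.8 microM final).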
The depositor's hits bear a star; i = inactive; ? = inconclusive; . = no result given; [ ] = remark or other dose.

molecule	Menin MLL FP FL	gsp antag	TRPML1 blocker	ClpP mod	gsp ag	TRPV1 potentiator	Sfp inh
Nc1cc(=O)[nH]c(=O)n1Cc1ccco1	-0.9	-3%	-10	1.1%	3%	9	2%
O=C(CNC(=O)c1cccs1)NC1=NCCS1	2.9	2%	0	-0.5%	25%	-2	-2%
CCOC(=O)N1CCN(Cc2nc3c(c(=O)n(C)c(=O)n3C)n2Cc2ccccc2C)CC1	-0.7	-10%	-9	4.6%	?	-4	-5%
CN1C(=O)CC(N2CCN(C(c3ccccc3)c3ccccc3)CC2)C1=O (stereo not given)	-2.4	9%	-5	-3.1%	-33%[inhibitor]	-18	13%
CCOc1ccc(NC(=O)CNC(=O)c2nn(-c3ccc(OC)cc3)c(=O)c3ccccc23)cc1	-16	-3%	-16	.	6%[15.4 µM]	-2	-9%
Cc1cc(N2C(=O)C3C4C=CC(C4)C3C2=O)ccc1Br (stereo not given)	2.3	-5%	5	2.4%	-28%	-17	12%
CC(Oc1ccccc1)C(=O)Nc1nc(-c2ccccn2)cs1 (stereo not given)	.	-6%	-8	.	6%[15.4 µM]	-4	.
O=c1[nH]c(N2CCCCCC2)nc2ncn(Cc3ccccc3)c12	-4.6	0%	5	-0.7%	-8%	4	2%
COCCNc1nc2nonc2nc1N1CCCC1c1nccs1 (stereo not given)	?	2%	-8	.	7%	6	-27%
NS(=O)(=O)c1ccc(NCc2c(F)cccc2Cl)cc1	1.6	1%	8	0.0%	-36%	-5	3%
CC1CN(C2CCCCC2)c2nc3c(c(=O)n(C)c(=O)n3C)n2C1 (stereo not given)	-1.7	12%	-2	-0.5%	1%	-18	-4%
Cc1ccc(S(=O)(=O)N2CCN(CC(=O)N/N=C/c3ccc(C)o3)CC2)cc1	-0.4	3%	3	0.7%	-11%	-3	15%
CCN1CCN(c2cc(C)c3cc(NC(=S)N4CCOCC4)ccc3n2)CC1	-1.2	0%	-8	-13%	8%	-2	7%
O=C(CN(CCc1ccccc1)C(=O)CNS(=O)(=O)c1ccccc1)NCC1CCCO1 (stereo not given)	0.2	4%	-26	-2.2%	?	9	-13%
Cc1cc(NC(=O)CSc2nc3ccccc3n2CCC#N)no1	0.7	10µM*	-4	.	-6%[15.4 µM]	3	-22%
O=C(Nc1nc2ccccc2[nH]1)C12CC3CC(CC(C3)C1)C2	4.5	-23%	-11	-2.8%	0%	0	7%
Cc1cccc(OCC(=O)NNC(=O)c2ccc([N+](=O)[O-])cc2)c1	-0.9	4%	14	-0.4%	?	7	-5%
CCOC(=O)N1CCc2[nH]c3ccc(C)cc3c2C1	-0.9	-12%	1	?	-17%[15.4 µM]	17	17%
Cc1ccc(C(=O)NNC(=O)Cc2cccs2)cc1	3.8	20%	32	-0.1%	-6%	-2	29%
CC(C)(C)SC(=O)C[C@@H]1NS(=O)(=O)OC2CCCCC21 (stereo not given in full)	2.2	7%	-12	-3.0%	?	-12	24%
O=C(NCC1CCCO1)C(=O)NCC1CCCN1S(=O)(=O)c1ccccc1 (stereo not given)	.	12%	55	1.5%	-27%	7	.
Cc1ccc(N2CC(C(=O)N/N=C/c3cccc([N+](=O)[O-])c3)CC2=O)cc1 (stereo not given)	0.1	2%[15.4 µM]	-17	-1.3%	-10%	6	15%
C/C(=N/NC(=O)CNC(=O)c1ccccc1F)c1ccc2c(c1)CCCC2	0.2	7%	-12	.	-14%[15.4 µM]	-2	19%
COc1ccc(Cl)cc1NC(=O)COC(=O)/C=C/c1c(C)nn(C2CCS(=O)(=O)C2)c1Cl (stereo not given)	-0.8	17%	-5	-0.6%	-39%	7	-2%
CCN(CC)C(=O)c1cccc(NC(=O)c2ccc3c(=O)n4c(nc3c2)CCC4)c1	.	-4%	-6	-12%	3%[15.4 µM]	-8	.
Cc1ccc(C(C)NC(=O)Cn2nc(C)c([N+](=O)[O-])c2C)cc1 (stereo not given)	-2.3	-3%	-15	-2.7%	-5%	-34	0%
COc1ccccc1C(C)NS(=O)(=O)c1ccc(Cl)nc1 (stereo not given)	.	0%	-8	-1.7%	4%[15.4 µM]	0	.
COC(=O)N1C(=O)[C@](c2ccc(Cl)cc2)(C(C)C)N1C(=O)OC	3.1	13%	-18	-0.7%	-18%	-14	-4%
CCN(CC)Cc1c(-c2ccccc2)[nH]c2ccc(C)cc2c1=O	5.1	-3%	28	-14%	-1%	2	13%
Cc1ccc2oc(-c3ccc(C)c(NC(=O)Cc4cccs4)c3)nc2c1	5.6	-10%	3	-3.5%	8%	22	14%

molecule	Menin MLL FP FL	gsp antag	TRPML1 blocker	ClpP mod	gsp ag	TRPV1 potentiator	Sfp inh
CC(C)[C@@H]1CN=C(N)N1C[C@@H]1CCCN1C[C@H](C)N1C[C@@H](Cc2ccccc2)N(CCc2ccc(Cl)c(Cl)c2)C1=N	.	5%	-1	-3.6%	.	.	.
O=C(c1ccc(NS(=O)(=O)c2cccc([N+](=O)[O-])c2)cc1)N1CCCCCC1	.	-11%	-19	.	7%[15.4 µM]	-14	.
O=C(N/C(=C\c1ccccc1)C(=O)N1CCOCC1)c1ccccc1Cl	.	4%	2	0.4%	13%	3	14%
Cc1ccc(CNC(=O)C2CC(=O)N(C3CCCCCC3)C2)cc1 (stereo not given)	-0.4	0%	-10	-9.2%	-1%[15.4 µM]	-17	-1%
O=C(O)/C=C/C(=O)Nc1ccc(N2CCOCC2)nc1N1CCOCC1	?	-6%	11	.	11%	7	10µM*
CC1(C)C[C@H](O)[C@]2(CO)CC[C@]3(C)C(=CCC4[C@@]5(C)CC[C@H](O)C(C)(C)C5CC[C@]43C)[C@@H]2C1 (stereo not given in full)	.	7%	.	2.4%	.	16	.
COc1cccc(COC(=O)Cc2ccc(S(=O)(=O)N3CCOCC3)s2)c1OC	.	-6%	4	-2.3%	-20%	-5	.
CC(=O)c1ccc(NC(=O)C(C)Nc2ccc(Cl)cc2)cc1 (stereo not given)	-6.7	11%	-13	.	3%	-2	11%
CSc1nc(C)c(CCOC(=O)c2ccccc2)c(=O)[nH]1	-0.9	-4%	-17	0.8%	-11%	.	4%
COc1ccccc1N(CC(=O)NC(C)(C)C)S(=O)(=O)c1cccs1	-1.9	2%	-16	-0.8%	-12%[15.4 µM]	?	-13%
O=C(O)CN1c2cccc3cccc(c23)S1(=O)=O	1.0	-6%	6	.	16%[15.4 µM]	-1	-17%
Cc1nn(-c2cc(N3CCCCC3)ccc2N)c(=O)c2ccccc12	-1.2	5%	6	-2.6%	5%	-18	7%
CCc1cccc(NC(=O)CCNS(=O)(=O)c2cc(Br)cnc2N)c1	.	-1%	10	-3.8%	-38%[inhibitor]	2	16%
Cn1c(C(=O)NN)cc2cc(Oc3ccccc3)ccc21	2.9	-2%	8	-21%	-14%	4	1%
S=c1nc(-c2ccco2)[nH][nH]1	3.1	-1%	-1	-1.0%	-34%[inhibitor]	-11	28µM*
Cc1cc(OCCCCN2C(=O)NC(C)(C)C2=O)cc(C)c1Cl	2.7	?	15	0.6%	10%	5	-12%
O=C(Cc1ccc([N+](=O)[O-])cc1)NC(C(=O)O)C(O)c1cccc([N+](=O)[O-])c1 (stereo not given)	-3.1	4%	19	-1.9%	1%[15.4 µM]	-21	16%
CCOc1ccc2nc(/N=C/c3c(C)[nH]n(-c4ccccc4)c3=O)sc2c1	0.5	-15%	-6	-4.9%	?	-2	10µM*
Oc1ccc(/C=N/Nc2ccnc3cc(Cl)ccc23)c(O)c1	?	-8%	4	0.0%	-2%	-24	-18%
C=CCOC(=O)/C(=C\c1ccccc1)NC(=O)c1ccco1	1.5	14%	-4	1.9%	-9%	9	7%
CC1(C)CC(=O)C2=C(C1)O[C@@]1(CCCCN3C(=O)c4ccccc4C3=O)Cc3cc(C#N)ccc3C2O1	3.0[11.7 µM]	.	.	.	.	i	-3%
O=C(CN(CC1CCCO1)C(=O)CNS(=O)(=O)c1ccc(Cl)cc1)NC1CCCC1 (stereo not given)	2.9	14%	-3	.	-2%	-14	8%
CCc1nnc(NC(=O)CCC(=O)N2CCN(Cc3ccccc3)CC2)s1	-0.8	3%	2	-1.0%	-24%	7	8%
OCC[C@@H]1C[C@@H](O)[C@H](O)[C@]2(OCCc3ccccc32)O1	0.1	8%	-1	1.9%	-31%[inhibitor]	7	1%
Cc1nc(-c2ccc(NC(=O)CC(C)C)cc2)cs1	0.0	-10%	-12	-19%	7%[15.4 µM]	22	8%
COC(=O)c1ccc(CO/N=C/c2ccccc2OC)cc1	-4.8	2%	17	-11%	-3%	-5	-15%
N#Cc1c(N)nc2c(c1N)CC(CO)O2 (stereo not given)	-0.5	-4%	28	1.5%	0%	-29	6%

Reprinted at random: five entries already listed
molecule	Menin MLL FP FL	gsp antag	TRPML1 blocker	ClpP mod	gsp ag	TRPV1 potentiator	Sfp inh
COc1cccc(COC(=O)Cc2ccc(S(=O)(=O)N3CCOCC3)s2)c1OC	.	-6%	4	-2.3%	-20%	-5	.
COc1ccccc1N(CC(=O)NC(C)(C)C)S(=O)(=O)c1cccs1	-1.9	2%	-16	-0.8%	-12%[15.4 µM]	?	-13%
O=C(O)CN1c2cccc3cccc(c23)S1(=O)=O	1.0	-6%	6	.	16%[15.4 µM]	-1	-17%
CCc1nnc(NC(=O)CCC(=O)N2CCN(Cc3ccccc3)CC2)s1	-0.8	3%	2	-1.0%	-24%	7	8%
N#Cc1c(N)nc2c(c1N)CC(CO)O2 (stereo not given)	-0.5	-4%	28	1.5%	0%	-29	6%

Hits appear at their usual frequency, and some 4.9% of all compounds hit somewhere here.
